ID4 SMM: binders of human ID4 protein. 31,000 compounds, 1.2% hits. calls only. AID 624137. P47928. small molecule microarray, Flag-ID4 binding, fluorescence F/B;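 active means spot signal over background at p below 0.07 in all four prints; compounds were printed on slides so no solution concentration is given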;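 further: a binder raises fluorescence above local background on the spot; about 2 pmol printed per array spot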
Target sequence (P47928 whole entry, looked up): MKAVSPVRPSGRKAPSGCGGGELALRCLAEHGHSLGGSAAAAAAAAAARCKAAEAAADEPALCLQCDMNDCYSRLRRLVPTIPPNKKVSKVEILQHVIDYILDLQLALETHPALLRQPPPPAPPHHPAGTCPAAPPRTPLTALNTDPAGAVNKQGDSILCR
Calls only; i = inactive; + = active, no number.

| compound | ID4 SMM |
| --- | --- |
| CCCC#Cc1cnc2c(c1)C(=O)N([C@H](C)CO)C[C@@H](C)[C@H](CN(C)C(=O)C1CC1)O2 | i |
| O=C(C[C@@H]1C=C[C@H](NC(=O)c2cccnc2)[C@H](CO)O1)NCCN1CCCCC1 | i |
| Cc1nc(C)n(CC(O)COc2ccc3ccccc3c2)n1 (stereo not given) | i |
| C[C@H]1CN([C@@H](C)CO)S(=O)(=O)c2ccc(/C=C/c3ccccc3)cc2O[C@@H]1CN(C)Cc1cccnc1 | i |
| COc1cc(Cl)c(C)cc1NC(=O)Cc1ccccc1[N+](=O)[O-] | i |
| CC(=O)N(C)C[C@@H]1Oc2ncc(C3=CCCC3)cc2C(=O)N([C@@H](C)CO)C[C@H]1C | i |
| C[C@H]1CN([C@@H](C)CO)C(=O)c2cc(-c3ccc(F)cc3)cnc2O[C@@H]1CN(C)Cc1cccnc1 | i |
| O=C(O)c1ccc(NC(=O)C2CC=CCC2C(=O)O)cc1 (stereo not given) | i |
| C[C@@H]1CN([C@H](C)CO)C(=O)c2cc(C#Cc3cccnc3)cnc2O[C@@H]1CN(C)Cc1ccccc1 | i |
| O=C(COc1ccc(Cl)cc1Br)Nc1ccccc1C(=O)NC1CCCCC1 | i |
| C[C@H]1CN([C@@H](C)CO)S(=O)(=O)c2ccc(-c3cncnc3)cc2O[C@H]1CN(C)Cc1ccccn1 | i |
| C/C=C/c1cnc2c(c1)C(=O)N([C@H](C)CO)C[C@H](C)[C@@H](CN(C)C(=O)C1CCCCC1)O2 | i |
| CC(=O)c1cccc(N(CC(=O)N(C)C)S(C)(=O)=O)c1 | i |
| COC(=O)c1ccccc1NC(=O)CNC(=O)c1ccc(C(C)(C)C)cc1 | i |
| COc1ccc(-n2c(SCC(=O)Nc3ccc(C)c(Cl)c3)nnc2-c2ccncc2)cc1 | i |
| COc1ccc(C(=O)CSc2nnc(-c3ccccc3)n2-c2ccc(Cl)cc2)cc1 | i |
| COc1ccc(-c2noc(CCC(=O)Nc3ccc(C)c(C)c3)n2)cc1 | i |
| O=C(Sc1ccc(Oc2ccc(SC(=O)c3ccco3)cc2)cc1)c1ccco1 | i |
| C[C@@H]1CN([C@H](C)CO)C(=O)c2ccccc2-c2ccccc2CO[C@@H]1CN(C)Cc1cccc(O)c1 | i |
| C[C@H]1CN([C@@H](C)CO)C(=O)c2cc(C3=CCCC3)cnc2O[C@@H]1CN(C)Cc1ccccn1 | i |

A different layout for two compounds above:
> COc1cc(Cl)c(C)cc1NC(=O)Cc1ccccc1[N+](=O)[O-]
- ID4 SMM: i
> C[C@@H]1CN([C@H](C)CO)C(=O)c2cc(C#Cc3cccnc3)cnc2O[C@@H]1CN(C)Cc1ccccc1
- ID4 SMM: i

Additional results.
| compound | ID4 SMM |
| --- | --- |
| C[C@@H]1CN([C@H](C)CO)C(=O)c2cc(Br)cnc2O[C@@H]1CN(C)C(=O)c1ccccc1F | i |
| COc1cccc(C(=O)Nc2cccc(OC(C)C(=O)c3cccc(Cl)c3)c2)c1 (stereo not given) | i |
| C[C@H]1CN([C@@H](C)CO)S(=O)(=O)c2ccc(C#CC(C)(C)O)cc2O[C@H]1CN(C)C(=O)C1CC1 | i |
| C[C@H]1CN([C@@H](C)CO)C(=O)c2cc(C#CCN(C)C)cnc2O[C@H]1CN(C)Cc1ccc(F)cc1 | i |
| O=C(CSc1n[nH]c(-c2ccncc2)n1)Nc1cccc(Cl)c1Cl | i |
| O=C(C[C@@H]1C=C[C@@H](NC(=O)CN2CCOCC2)[C@H](CO)O1)NC1CCCCC1 | i |
| C[C@@H]1[C@H]2[C@H](OC3O[C@H](CO)[C@@H](O)[C@H](O)[C@H]3O)OC=C(C(=O)O)[C@H]2C[C@@H]1O (stereo not given in full) | i |
| CC(=O)N(C)C[C@H]1Oc2ncc(C3=CCCC3)cc2C(=O)N([C@@H](C)CO)C[C@@H]1C | i |
| COc1ccc(C#Cc2cnc3c(c2)C(=O)N([C@@H](C)CO)C[C@@H](C)[C@@H](CN(C)CC2CC2)O3)cc1 | i |
| O=C(CSc1ncnc2scc(-c3ccccc3)c12)Nc1cccc(Cl)c1Cl | i |
| C[C@@H]1O[C@@H](Oc2ccc(C3Oc4cc(O)cc(O)c4C(=O)C3O)cc2O)[C@H](O)[C@H](O)[C@H]1O (stereo not given in full) | i |
| O=C(C[C@H]1C=C[C@H](NC(=O)Nc2ccccc2F)[C@H](CO)O1)NCc1ccc(F)cc1 | i |
| C[C@@H]1CN([C@@H](C)CO)C(=O)c2cc(C#CCC3CCCC3)cnc2O[C@@H]1CN(C)C(=O)c1cnccn1 | i |
| Cc1ccc(C(=O)NC(=O)CSc2nnnn2-c2ccccc2)cc1 | i |
| CC(C)CC#Cc1cnc2c(c1)C(=O)N([C@H](C)CO)C[C@@H](C)[C@@H](CN(C)Cc1ccc(F)cc1)O2 | i |
| C[C@@H]1CN([C@@H](C)CO)C(=O)c2cc(Br)cnc2O[C@H]1CN(C)C(=O)C1CC1 | i |
| CC(=O)O[C@]1(C(C)=O)CCC2C3C[C@H](C)C4=CC(=O)CC[C@]4(C)C3CC[C@@]21C (stereo not given in full) | i |
| O=C(Cn1cnc2ccccc2c1=O)Nc1ccc(Cl)c(Cl)c1 | i |
| N=c1c2cnn(-c3ccccc3)c2ncn1/N=C/c1ccc(Cl)cc1 | i |
| CC(=O)N(C)C[C@H]1OCc2ccccc2-c2c(n(C)c3ccccc23)C(=O)N([C@H](C)CO)C[C@H]1C | i |

Remaining list, next part.
| compound | ID4 SMM |
| --- | --- |
| C[C@@H]1CN([C@H](C)CO)C(=O)c2cc(C#Cc3cccc(F)c3)cnc2O[C@@H]1CN(C)C(=O)C1CCC1 | i |
| COc1ccc(OC)c(NC(=O)C(C)NS(=O)(=O)c2ccc(C)cc2)c1 (stereo not given) | i |
| C[C@@H]1CN([C@H](C)CO)C(=O)c2cc(C3=CCCC3)cnc2O[C@H]1CN(C)Cc1ccccc1 | i |
| CCCCn1c2ccccc2c2nnc(SCC(=O)c3ccc(Cl)cc3)nc21 | i |
| Cc1ccc(C(C)C)c(OCCSc2nc3ncnc(N)c3[nH]2)c1 | i |
| CN(Cc1cccs1)C(=S)SCCO | i |
| O=C(C[C@H]1C=C[C@@H](NC(=O)c2cccc(F)c2)[C@H](CO)O1)NCc1ccccc1 | i |
| Cc1ccc(NC(=O)c2[nH]c3c(c2C)C(=O)CC(c2ccc(C(C)(C)C)cc2)C3)cc1C (stereo not given) | i |
| C[C@@H]1CN([C@H](C)CO)C(=O)c2cc(C#Cc3ccccc3)cnc2O[C@@H]1CN(C)C(=O)CN(C)C | i |
| COC(=O)CCC(=O)NC(=S)Nc1c(C)cccc1C | i |
| CN(C)CCCCCCNC(=O)[C@H]1C[C@H]2C(=O)N3CCC[C@H]3C(=O)N2[C@H]1c1cccc(OCCO)c1 | + |
| CC(=O)c1ccccc1OCC(O)Cn1cnc2ccccc21 (stereo not given) | i |
| C[C@@H]1CN([C@H](C)CO)S(=O)(=O)c2ccc(-c3cccnc3)cc2O[C@H]1CN(C)C(=O)CC1CC1 | i |
| O=C(N[C@@H]1CC[C@H](CC(=O)N2CCc3ccccc3C2)O[C@H]1CO)C1CC1 | i |
| C[C@@H]1CN([C@H](C)CO)C(=O)c2cc(NC(=O)C3CC3)ccc2O[C@@H]1CN(C)CC1CCCCC1 | i |
| CCc1cc(C(=O)OC)c(NC(=S)Nc2ccc(S(=O)(=O)N3CCOCC3)cc2)s1 | i |
| C[C@H]1CN([C@@H](C)CO)C(=O)c2c(c3ccccc3n2C)-c2ccccc2CO[C@H]1CN(C)C | i |
| C[C@@H]1CN([C@@H](C)CO)C(=O)c2cc(-c3cccc(F)c3)cnc2O[C@H]1CN(C)C(=O)C1CCCCC1 | i |
| C[C@H]1CN([C@@H](C)CO)S(=O)(=O)c2ccc(/C=C/c3ccccc3)cc2O[C@@H]1CN(C)C | i |
| Cc1cc2nc(-c3cccc(NC(=O)COc4ccc(Cl)cc4)c3C)oc2cc1C | i |

The listing continues.
| molecule | ID4 SMM |
| --- | --- |
| CCOc1cc(C)c(Cl)cc1S(=O)(=O)NCc1ccccn1 | i |
| C[C@H](CO)N1C[C@H](C)[C@H](CN(C)CC2CCCCC2)Oc2ccc(NC(=O)C3CC3)cc2CC1=O | i |
| C[C@@H]1CN([C@H](C)CO)C(=O)c2cc(-c3cccc(F)c3)cnc2O[C@@H]1CN(C)C | i |
| CC(C)C#Cc1cnc2c(c1)C(=O)N([C@H](C)CO)C[C@H](C)[C@@H](CN(C)Cc1ccccn1)O2 | i |
| O=C(C[C@@H]1C=C[C@@H](NC(=O)C2CCC2)[C@@H](CO)O1)NCC1CC1 | i |
| Cc1ccccc1NC(=O)CSc1nc(N2CCCCC2)nc(N2CCCCC2)n1 | i |
| COc1ccc(S(=O)(=O)N[C@H]2C=C[C@@H](CC(=O)N3CCc4ccccc4C3)O[C@@H]2CO)cc1 | i |
| COc1cc(O)c2c(=O)cc(-c3ccccc3)oc2c1OC | i |
| CS(=O)(=O)N(CC(=O)Nc1ccc(F)cc1)c1ccccc1Br | i |
| CC(=O)N(C)C[C@H]1Oc2ncc(/C=C/c3ccccc3)cc2C(=O)N([C@H](C)CO)C[C@H]1C | i |
| O=C(CCN1C(=O)c2ccccc2C1=O)Oc1c(-c2ccccc2)oc2ccccc2c1=O | i |
| CCCN(C)C[C@H]1Oc2cc(C#CCC3CCCC3)ccc2S(=O)(=O)N([C@@H](C)CO)C[C@H]1C | i |
| Cc1ccc(C)c(NC(=O)CN(c2ccc(F)c(Cl)c2)S(C)(=O)=O)c1 | i |
| Cc1ccc2nc(-c3ccc(NC(=O)Cn4nc([N+](=O)[O-])c(Cl)c4C)cc3)sc2c1 | i |
| C[C@H]1CN([C@@H](C)CO)C(=O)c2cc(-c3cccc(C#N)c3)cnc2O[C@H]1CN(C)Cc1ccc(F)cc1 | i |
| CC(C)CC#Cc1cnc2c(c1)C(=O)N([C@H](C)CO)C[C@H](C)[C@H](CN(C)S(=O)(=O)c1cccs1)O2 | i |
| COc1ccccc1-c1cnc2c(c1)C(=O)N([C@H](C)CO)C[C@H](C)[C@@H](CN(C)C(=O)c1ccncc1)O2 | i |
| CC(C)C(=O)Nc1ccc(S(=O)(=O)Nc2nccc(/C=C/c3ccccc3F)n2)cc1 | i |
| CNC[C@@H]1Oc2cc(C#CC3CCCC3)ccc2S(=O)(=O)N([C@@H](C)CO)C[C@H]1C | i |
| Nc1ncnc2c1c1nc3ccccc3nc1n2CCc1ccccc1 | i |
| CCCC#Cc1cnc2c(c1)C(=O)N([C@@H](C)CO)C[C@@H](C)[C@@H](CN(C)S(=O)(=O)c1ccccc1)O2 | i |
| CC1=C(C(=O)Nc2ccc(Cl)cc2)C(c2cccnc2)n2ncnc2N1 (stereo not given) | i |
| CS(=O)(=O)N(CC(=O)Nc1ccc(C(F)(F)F)cc1)c1ccc(Oc2ccccc2)cc1 | i |
| C[C@H]1CN([C@@H](C)CO)C(=O)c2cc(C3=CCCCC3)cnc2O[C@H]1CN(C)Cc1cccnc1 | i |
| C[C@H](CO)N1C[C@H](C)[C@H](CN(C)CC2CC2)Oc2c(NC(=O)C3CC3)cccc2C1=O | i |

Reprinted at random: 5 entries already listed.
| molecule | ID4 SMM |
| --- | --- |
| Cc1ccc(C)c(NC(=O)CN(c2ccc(F)c(Cl)c2)S(C)(=O)=O)c1 | i |
| C[C@H](CO)N1C[C@H](C)[C@H](CN(C)CC2CC2)Oc2c(NC(=O)C3CC3)cccc2C1=O | i |
| Nc1ncnc2c1c1nc3ccccc3nc1n2CCc1ccccc1 | i |
| CS(=O)(=O)N(CC(=O)Nc1ccc(C(F)(F)F)cc1)c1ccc(Oc2ccccc2)cc1 | i |
| CCCN(C)C[C@H]1Oc2cc(C#CCC3CCCC3)ccc2S(=O)(=O)N([C@@H](C)CO)C[C@H]1C | i |

Compounds above with a COOH group:
| molecule | ID4 SMM |
| --- | --- |
| O=C(O)c1ccc(NC(=O)C2CC=CCC2C(=O)O)cc1 (stereo not given) | i |
| C[C@@H]1[C@H]2[C@H](OC3O[C@H](CO)[C@@H](O)[C@H](O)[C@H]3O)OC=C(C(=O)O)[C@H]2C[C@@H]1O (stereo not given in full) | i |

More records.
| molecule | ID4 SMM |
| --- | --- |
| CNC[C@@H]1Oc2cc(-c3ccc(C)cc3)ccc2S(=O)(=O)N([C@@H](C)CO)C[C@H]1C | i |
| COc1ccccc1CCNC(=O)c1cc(-c2ccccn2)nc2ccc(Br)cc12 | i |
| CCn1c(SCC(=O)c2ccc(OC)cc2)nnc1-c1ccccc1Cl | i |
| Cc1cccc(C)c1Oc1nc(-c2ccccc2)ncc1S(=O)(=O)c1ccccc1 | i |
| C[C@H](CO)N1C[C@H](C)[C@H](CN(C)C)Oc2cc(-c3cccnc3)ccc2S1(=O)=O | i |
| Cn1c(SCC(=O)c2ccc([N+](=O)[O-])cc2)nnc1-c1cccs1 | i |
| C[C@@H]1CN([C@H](C)CO)C(=O)c2cc(C#CCN(C)C)cnc2O[C@@H]1CN(C)Cc1cccc(F)c1 | i |
| Cc1ccc([N+](=O)[O-])cc1NC(=O)CSC1=NCCS1 | i |
| O=C(C[C@@H]1C[C@H]2c3cc(NS(=O)(=O)c4ccccc4)ccc3O[C@H]2[C@H](CO)O1)N1CCCCC1 | i |
| COc1ccc(OC)c(C(=O)CSc2nnc(-c3ccncc3)n2-c2ccc(C)cc2)c1 | i |
| COc1cc(NC(=O)CN(C)S(=O)(=O)c2cc(Cl)ccc2Cl)cc(OC)c1 | i |
| C[C@H]1CN([C@@H](C)CO)C(=O)c2cc(C#CCN(C)C)cnc2O[C@H]1CN(C)C(=O)c1ccc(F)cc1 | i |
| CCCN(C)C[C@@H]1Oc2cc(C3=CCCC3)ccc2S(=O)(=O)N([C@@H](C)CO)C[C@H]1C | i |
| Cc1cccc(CN(C)C[C@@H]2OCc3cn(nn3)CCCC(=O)N([C@@H](C)CO)C[C@@H]2C)c1 | i |
| O/N=C/c1ccc(Cl)s1 | i |
| Cc1ccc(OCC(=O)Nc2cccc3ncccc23)c(C)c1 | i |
| Cc1noc(C)c1C(=O)N(C)C[C@H]1OCc2ccccc2-c2ccccc2C(=O)N([C@@H](C)CO)C[C@@H]1C | i |
| CS(=O)(=O)N(CC(=O)Nc1ccccc1-c1ccccc1)c1ccc(Cl)cc1 | i |
| CN1CCN(C(=O)C[C@@H]2CC[C@H](NC(=O)Nc3ccccc3F)[C@@H](CO)O2)CC1 | i |
| Cc1nnc(SCC(=O)Nc2ccc(OC(F)(F)F)cc2)s1 | i |

This is a subset. The share of hits here may be higher or lower than overall.
